Source: PubChem BioAssay
EPAC1 ag val: validation of human EPAC1 agonists; AID 1645883; Potency, µM, inactives show max response, positive = active, hits mostly activators; EPAC1 Rap1b BODIPY-GDP exchange, fluorescence; 16,000 tested, 1% active; O95398; active = well fitted activation curve with a large enough effect; inconclusive = small, poorly fitted or top-dose-only effect; inactive = no such curve, though single readings can be large or run the other way;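 note: nearly all actives have a fitted effect of over 70% in size; series mostly up to about 76 or 150 µM; scaled to a cAMP control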
Target sequence (O95398 whole entry, looked up): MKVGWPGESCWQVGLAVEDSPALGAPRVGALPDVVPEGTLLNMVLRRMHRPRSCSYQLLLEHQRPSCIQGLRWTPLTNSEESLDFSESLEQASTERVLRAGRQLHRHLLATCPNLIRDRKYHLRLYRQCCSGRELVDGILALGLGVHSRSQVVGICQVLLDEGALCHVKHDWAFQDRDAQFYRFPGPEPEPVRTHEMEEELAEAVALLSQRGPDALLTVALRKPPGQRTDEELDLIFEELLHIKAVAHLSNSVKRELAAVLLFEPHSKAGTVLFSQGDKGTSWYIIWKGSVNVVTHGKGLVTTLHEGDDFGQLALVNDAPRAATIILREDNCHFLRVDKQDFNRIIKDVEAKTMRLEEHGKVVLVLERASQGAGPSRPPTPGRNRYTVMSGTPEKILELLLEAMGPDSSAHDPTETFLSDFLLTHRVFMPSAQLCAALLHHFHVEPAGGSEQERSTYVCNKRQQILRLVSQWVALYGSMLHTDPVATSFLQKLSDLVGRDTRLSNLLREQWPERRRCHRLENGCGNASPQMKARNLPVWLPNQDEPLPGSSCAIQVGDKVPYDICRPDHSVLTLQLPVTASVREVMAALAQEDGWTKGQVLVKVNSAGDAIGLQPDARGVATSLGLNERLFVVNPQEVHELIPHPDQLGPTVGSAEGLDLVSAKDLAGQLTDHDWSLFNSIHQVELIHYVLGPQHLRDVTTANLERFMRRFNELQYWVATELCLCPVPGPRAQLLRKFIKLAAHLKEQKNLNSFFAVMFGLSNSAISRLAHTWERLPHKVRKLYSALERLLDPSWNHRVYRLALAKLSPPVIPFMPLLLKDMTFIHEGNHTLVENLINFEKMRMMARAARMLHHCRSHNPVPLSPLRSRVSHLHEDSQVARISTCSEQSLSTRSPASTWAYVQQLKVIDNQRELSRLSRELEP
An asterisk follows results filed as active; ? = inconclusive; & = joins results of further samples; [ ] = another dose, or the depositor's remark. % is set by controls: 0 for no effect and ±100 for the full control effect; potency is the fitted concentration of half-maximal effect. A portion of the library; rates above refer to the full screens.

EPAC1 ag val	Molecule
-9.5%	OC(c1ccc2c(c1)CN(Cc1c[nH]c3ccccc13)CCO2)c1ccccn1 (stereo not given)
8.4%	COc1cc2c(N3CCN(C(=O)Nc4ccc(OC(C)C)cc4)CC3)ncnc2cc1OCCCN1CCCCC1
-2.0%&-19.1%&-11.8%&-12.0%&23.1%	CC(C)(Oc1ccc(CCNC(=O)c2ccc(Cl)cc2)cc1)C(=O)O
?	CS(=O)(=O)Nc1cccc(-c2ccc3ncnc(Nc4ccc(F)cc4)c3c2)c1
2.9%	CN(Cc1ccco1)c1ccnc(-c2cccnc2)n1
?	CC/C(=C/c1ccccc1OC)c1cc(-c2ccccc2)cc2oc3ccccc3c12
20.2%	CCCCN1CC[C@H]2C=CC[C@@H](C(=O)NCCc3ccccc3)[C@H]2C1=O
0.0%	COc1cc(/C=C/C(=O)N2CCC=CC2=O)cc(OC)c1OC
-9.7%	O=C(C[C@H]1C(=O)N(C2CCCCC2)C[C@@H]1Cc1ccccc1)Nc1ccccc1
3.1%	Cc1ncc2c(c1CNC(=O)c1ccc3c(c1)OCO3)CCN(C(=O)/C=C/c1ccc(Cl)cc1)C2
5.8%	CC(=O)c1c(O)cc(O)cc1O
3.3%	CNc1ncnc2ccc(-c3cccc(NS(C)(=O)=O)c3)cc12
?	COc1ccc(CN2CCC(=O)N(CCO)CC2)cc1OC
?	COc1c(O)cc2oc3cc(O)c(CC=C(C)C)c(O)c3c(=O)c2c1CC=C(C)C
?	COc1cc2nc(CCc3nc4cc(OC)c(OC)cc4[nH]3)[nH]c2cc1OC
-34.0%[inhibitor]	CN(C)c1ncc2ncc(=O)n(CCc3ccccc3)c2n1
5.8%	Cc1oc(-c2ccccc2NC(=O)C2CCCO2)nc1CNC(=O)c1[nH]c2c(C)ccc(C)c2c1C (stereo not given)
-5.2%	CC(=O)OCC(=O)[C@@]1(O)CCC2C3CCC4=CC(=O)CC[C@@]4(C)[C@]3(F)C(O)C[C@]21C (stereo not given in full)
-3.8%	CCCCCCCCCCCCCCCCN
8.3%	Cc1ccc2ncc(C)c(C)c2c1

2 entries from above, with bars between the fields:
mol | EPAC1 ag val
COc1ccc(CN2CCC(=O)N(CCO)CC2)cc1OC | ?
CCCCCCCCCCCCCCCCN | -3.8%

The results go on.
EPAC1 ag val	Molecule
9.4%	COc1cc(=O)n2c(c1C(=O)N(C)Cc1nccs1)CCN(Cc1cc3ccccc3s1)CC2
-3.0%	CCCN1CCC(=O)N([C@H](CSc2ccccc2)CC(C)C)CC1
2.2%&-14.3%&-22.0%	CN1CCN2c3ccccc3Cc3ccccc3C2C1 (stereo not given)
-5.4%	Cc1nc2ccc(NC(=O)Nc3ccnc4cccnc34)cc2o1
-3.5%	COC1=C(OC)C(=O)C(C/C=C(\C)CC/C=C(\C)CC/C=C(\C)CC/C=C(/C)CC/C=C(\C)CC/C=C(\C)CC/C=C(\C)CC/C=C(\C)CC/C=C(\C)CCC=C(C)C)=C(C)C1=O
12.3%	COc1ccccc1CNc1ncncc1-c1ccc2c(c1)OCO2
0.8%&-3.5%&0.2%	O=C1CC2(CCCC2)CC(=O)N1CCCCN1CCN(c2ncccn2)CC1
5.5%&-14.1%	CCc1c(C)[nH]c2c1C(=O)C(CN1CCOCC1)CC2 (stereo not given)
3.7%&29.1%	C[C@@H]1C(=O)NC2=Nc3cccc(Cl)c3CN21
-6.1%&12.0%&7.3%	CCN(CC)CCOC(=O)C1(C2CCCCC2)CCCCC1
-11.8%	NC(=O)COCCN1CCN(C(c2ccccc2)c2ccc(Cl)cc2)CC1 (stereo not given)
-8.2%	COCCn1c(=O)c(CCc2ccccc2)nc2cnc(Oc3cccc(Cl)c3)nc21
?	CO[C@H](C(=O)[C@@H](O)[C@@H](C)O)C1Cc2cc3cc(O[C@H]4C[C@@H](O[C@H]5C[C@@H](O)[C@H](O)[C@@H](C)O5)[C@@H](O)[C@@H](C)O4)c(C)c(O)c3c(O)c2C(=O)[C@H]1O[C@H]1C[C@@H](O[C@H]2C[C@@H](O[C@H]3C[C@](C)(O)[C@H](O)[C@@H](C)O3)[C@H](O)[C@@H](C)O2)[C@H](O)[C@@H](C)O1 (stereo not given in full)
?	C[C@]12CCC(=O)C=C1CCC1C2C(O)C[C@]2(C)C1CC[C@]2(O)C(=O)CO (stereo not given in full)
-52.3%[inhibitor]	COc1ccc(-n2c(=O)c(C)nc3cnc(Nc4cccc(OC)c4)nc32)cc1
9.2%	CCC(=O)N[C@@H]1c2ccccc2C2(CCN(Cc3[nH]c4c(Cl)cccc4c3C)CC2)[C@H]1OC
3.4%	O=C(CSc1ccncc1)NCC1Cc2cccc(-c3cncnc3)c2O1 (stereo not given)
-25.0%	COc1ncc2nc(CCc3ccccc3)c(=O)n(CCc3ccccc3)c2n1
16.0%	C=C1CC2C3CCC4=CC(=O)C=C[C@]4(C)[C@@]3(F)[C@@H](O)C[C@]2(C)[C@@]1(O)C(=O)COC(C)=O (stereo not given in full)
-29.4%	Cn1cccc1C(=O)N1CCC2(CCCN(C(c3ccccc3)c3ccccc3)C2)CC1

The results go on.
EPAC1 ag val	Molecule
-18.1%	Cc1c(C(=O)NCCc2ccncc2)cnn1-c1nccc(-c2ccccc2C(F)(F)F)n1
-74.8%[inhibitor]	CCCCCCCCNC(C)C(O)c1ccc(SC(C)C)cc1 (stereo not given)
7.3%	O=C(Nc1cccc(F)c1)N1CC2(CCN(C(=O)c3cnccn3)CC2)C1
5.2%	O=c1cnc2cnc(N3CCNCC3)nc2n1Cc1ccc(F)cc1
20.7%	O=C(Oc1cc(OC(=O)c2ccccc2)c2c(c1)OC(c1ccc(OC(=O)c3ccccc3)c(OC(=O)c3ccccc3)c1)[C@@H](OC(=O)c1ccccc1)C2)c1ccccc1 (stereo not given in full)
7.7%	CCC1CN(CCNC(=O)c2ccc3c(c2)OCCO3)Cc2cc(OC)ccc2O1 (stereo not given)
6.0%	O=C(NCC1CCC2(CCN(Cc3c[nH]c4ccccc34)CC2)O1)C1CCOCC1 (stereo not given)
6.2%	CC[C@@]1(O)C(=O)OCc2c1cc1n(c2=O)Cc2cc3c([N+](=O)[O-])cccc3nc2-1
11.6%	COCCNc1cc(-c2ccccc2CN(C)C)ncn1
11.8%	CN1CCCC2(CCN(C(=O)c3cccn3C)CC2)C1
-12.6%&24.7%	O=C(CCCCC(=O)Nc1c(I)cc(I)c(C(=O)O)c1I)Nc1c(I)cc(I)c(C(=O)O)c1I
11.3%	Cc1nc2cnc(Oc3ccccc3)nc2n(C2CC2)c1=O
8.3%	c1ccc2c(c1)OCC(CN1CCCCC1)O2 (stereo not given)
?	C[C@H]1CCC(=O)N([C@H](CSc2ccc(Br)cc2)Cc2ccccc2)CC1
-52.2%[inhibitor]	O=c1c(-c2ccc(F)cc2)nc2cncnc2n1C1CC1
-0.9%	CCn1c(-c2ccccc2F)nc2cc(NC(C)=O)cc(C(=O)N3CCCC3c3nccs3)c21 (stereo not given)
-15.3%&8.4%	COc1ccc2c(c1)N(C[C@H](C)CN(C)C)c1ccccc1S2
15.9%	CC(C)Oc1cccc(-n2c(CCc3c[nH]c4ccc(Br)cc34)nc3ccccc3c2=O)c1
14.0%	COc1ccccc1CNc1ncnc2ccc(-c3ccc(N(C)C)cc3)cc12
5.0%	O=C1CCN(CCc2ccccc2)CCN1[C@H](CSc1ccccc1)c1ccccc1

Further compounds follow.
EPAC1 ag val	Molecule
-7.4%	COc1ccc(C(=O)c2ccc(C)cc2)c(O)c1
-11.3%	CC[N+](C)(CC)CC(=O)Nc1c(C)cccc1C
12.4%	CC1(C)O[C@@H]2C[C@H]3[C@@H]4C[C@H](F)C5=CC(=O)C=C[C@]5(C)[C@H]4[C@@H](O)C[C@]3(C)[C@]2(C(=O)CO)O1
-12.7%	COc1ccc(C(=O)/C(Br)=C\C(=O)O)cc1
4.3%&14.2%	COc1c2ccoc2cc2oc(=O)ccc12
-48.2%[inhibitor]	O=C(Nc1cccc(F)c1)N1CCC2(CC1)CCN(C(=O)c1ccncc1)CC2
1.2%	COc1cccc(Cn2c(=O)c(-c3cccc(C#N)c3)nc3cnc(N4CCN(C)CC4)nc32)c1
-0.8%&-12.2%&-10.6%	CCCCCC(O)CCCC(=O)O (stereo not given)
-25.2%	CC(=O)N1CCC2(CCCN(C(c3ccccc3)c3ccccc3)C2)CC1
13.2%	COc1ccc(CNC(=O)[C@@H]2CC=C[C@@H]3CCN(Cc4ccc(Cl)c(Cl)c4)C(=O)[C@@H]32)cc1
?	COc1ccc(CCC(=O)O)cc1
?	COCCn1c(=O)c(-c2cccs2)nc2cnc(Oc3cccc(Cl)c3)nc21
-33.3%	CN(C)c1ncc2ncc(=O)n(CCC#N)c2n1
-11.3%	O=C(O)Cc1ccc(-c2ccccc2)cc1
11.8%	CC(C)C(=O)NCC1CCC2(CCN(Cc3ccc(-c4ccccc4Cl)o3)CC2)O1 (stereo not given)
-12.1%	Cc1nc2sccn2c1CN1CCOc2ccc(CN3C[C@@H](C)O[C@@H](C)C3)cc2C1
17.9%	CC(=O)Oc1ccc(C2(c3ccc(OC(C)=O)cc3)Oc3ccccc3NC2=O)cc1
?	O=C(c1ccco1)N1CCC2(CC1)CN(c1ccc(-c3ccccc3)cc1)C2
23.5%	CS(=O)(=O)N1CCC2(CC1)CN(c1ccncc1)C2
-23.0%	Cc1cnc(C)c(-c2ccc(F)c3c2OC(CNC(=O)/C=C/c2cccs2)C3)n1 (stereo not given)

Quoted from the listing.
`COc1ccccc1CNc1ncncc1-c1ccc2c(c1)OCO2` – EPAC1 ag val: 12.3%
`CC(=O)OCC(=O)[C@@]1(O)CCC2C3CCC4=CC(=O)CC[C@@]4(C)[C@]3(F)C(O)C[C@]21C` (stereo not given in full) – EPAC1 ag val: -5.2%

(more compounds)
EPAC1 ag val	Molecule
-46.0%[inhibitor]	COc1ccc(C(=O)N2CCC3(CCCN(Cc4nccs4)C3)CC2)cc1
-1.5%	N[C@@H](C(=O)O)c1ccc(O)c(C(=O)O)c1
-69.1%[inhibitor]	Clc1ccccc1-c1nc(Nc2ccncc2)c2ccccc2n1
9.7%	CN(C)CCc1cc2c(c3c1ccc1ccccc13)OCO2
16.9%	CC(=O)OC1CC(OC(C)=O)[C@]2(C)C(CC(=O)[C@]3(C)C2CC[C@@]2(C)C(c4ccoc4)OC(=O)C4O[C@@]423)C1(C)C (stereo not given in full)
-2.1%	CCCCC/C=C\C/C=C\CCCCCCCC(=O)O[C@@H](CO)COC(=O)CCCCCCCCCCCCCCCCC
-39.5%[inhibitor]	COc1ccccc1CN1CCCC2(CCN(C(=O)c3ccncc3)CC2)C1
10.6%	COc1ccc(CNc2nc(-c3ccccc3CN(C)C)nc3ccccc23)c(OC)c1
?	CN(C)c1ncc2nc(-c3cccs3)c(=O)n(-c3ccccc3)c2n1
-4.9%	Cc1cc(C)n(Cc2cccc(C(=O)NCC3Cc4cccc(-c5ncccn5)c4O3)c2)n1 (stereo not given)
-38.3%[inhibitor]	CC(=O)N1CCC2(CC1)CCN(c1ccccn1)CC2
-18.5%	CC(C)=CCN1CCC2(CCc3ccccc32)CC1
7.6%	CCc1ccc(C(=O)C(C)CN2CCCCC2)cc1 (stereo not given)
-29.8%	CCc1ccc2c(c1)N(CC(C)CN(C)C)c1ccccc1S2 (stereo not given)
-8.8%	CC[C@H](c1ccc(O)cc1)[C@@H](CC)c1ccc(O)cc1
?	CCCCCCN(CCCCCC)C(=O)Cc1c(-c2ccc(F)cc2)[nH]c2ccccc12
-1.6%	O=c1c(-c2ccc(F)cc2)nc2cnc(N3CCOCC3)nc2n1CCc1ccccc1
29.5%	CN(C)c1ncc2nc(-c3cc(F)cc(F)c3)c(=O)n(CCc3ccccc3)c2n1
-5.5%	CCC1CN(CCNC(=O)C2CCCCN2C)Cc2cc(OC)ccc2O1 (stereo not given)
-64.0%[inhibitor]	CS(=O)(=O)N1CCC2(CCCN(Cc3ccc(C#N)cc3)C2)CC1

3 structures from above, ordered by number of heavy atoms, low to high.
EPAC1 ag val	Molecule
9.7%	CN(C)CCc1cc2c(c3c1ccc1ccccc13)OCO2
-29.8%	CCc1ccc2c(c1)N(CC(C)CN(C)C)c1ccccc1S2 (stereo not given)
10.6%	COc1ccc(CNc2nc(-c3ccccc3CN(C)C)nc3ccccc23)c(OC)c1

Further results.
EPAC1 ag val	Molecule
-16.2%	CC(=O)OCC(=O)[C@@]12OC(C)(C)O[C@@H]1C[C@H]1[C@@H]3C[C@H](F)C4=CC(=O)C=C[C@]4(C)[C@@]3(F)[C@@H](O)C[C@@]12C
1.0%	OCC(CO)N[C@H]1C[C@](O)(CO)[C@@H](O)[C@H](O)[C@H]1O
-10.5%	CC(=O)OC1CCC2(C)C(CCC3(C)C2C(=O)C=C2C4CC(C)(C(=O)OCCN5CCCCC5)CCC4(C)CCC23C)C1(C)C (stereo not given)
-8.3%	COc1ccc(CCNC(=O)c2cnn(-c3nccc(-c4ccco4)n3)c2C)cc1
?	O=C([C@@H]1CC=C[C@@H]2CCN(C3CCCCC3)C(=O)[C@@H]21)N1CCOCC1
-3.8%	C=C(CO)C1Cc2c(ccc3c2OC2COc4cc(OC)c(OC)cc4C2C3=O)O1 (stereo not given)
0.7%	C#CC(N)CCC(=O)O (stereo not given)
14.2%	Cc1noc(C)c1-c1nc(NCc2cccnc2)c2ccccc2n1
?	COc1ccc2[nH]cc(CCNc3ncncc3-c3ccc4c(c3)OCO4)c2c1
12.5%	COc1ccc(C(=O)N2CCC3(CC2)CN(C(=O)Nc2ccccc2)C3)cc1
-189.7%[inhibitor]	O=C(c1cc(C(F)(F)F)cc(C(F)(F)F)c1)N1CCC2(CC1)CN(c1ccccn1)C2
-27.7%	CC(C)NC[C@@H](O)COc1ccccc1-n1cccc1
-1.6%	O=c1c(-c2cc(F)cc(F)c2)nc2cnc(N3CCNCC3)nc2n1-c1ccccc1
28.6%	Nc1nc2c(nc(Cl)n2C2OC(CO)C(O)C2O)c(=O)[nH]1 (stereo not given)
-11.9%	Cc1cc2c(c(-c3cnccn3)c1)OC(CNC(=O)c1ccccc1C(F)(F)F)C2 (stereo not given)
